From PubChem BioAssay
Rango complex inh: qHTS Assay for Inhibitors of Rango (Ran-regulated importin-beta cargo) - Importin beta complex formation; Importin subunit beta-1 (Homo sapiens), Q14974; Rango CFP/YFP FRET sensor + importin beta, 45 min; Potency, µM (highest dose often 92.2 µM), inactives show top-dose inhibition of complex formation; hit rate 0.031% among 340,000; active = rising FRET ratio curve, often small or poorly fitted; inconclusive = mostly compound fluorescence or quenching in the first reads; inactive = flat curves in all reads;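 further: potency means the concentration at half of the fitted maximal effect; 0% = DMSO wells and 100% = buffer wells lacking importin beta; nearly all actives have a fitted effect of over 15% in size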
Target sequence (Q14974 whole entry, looked up): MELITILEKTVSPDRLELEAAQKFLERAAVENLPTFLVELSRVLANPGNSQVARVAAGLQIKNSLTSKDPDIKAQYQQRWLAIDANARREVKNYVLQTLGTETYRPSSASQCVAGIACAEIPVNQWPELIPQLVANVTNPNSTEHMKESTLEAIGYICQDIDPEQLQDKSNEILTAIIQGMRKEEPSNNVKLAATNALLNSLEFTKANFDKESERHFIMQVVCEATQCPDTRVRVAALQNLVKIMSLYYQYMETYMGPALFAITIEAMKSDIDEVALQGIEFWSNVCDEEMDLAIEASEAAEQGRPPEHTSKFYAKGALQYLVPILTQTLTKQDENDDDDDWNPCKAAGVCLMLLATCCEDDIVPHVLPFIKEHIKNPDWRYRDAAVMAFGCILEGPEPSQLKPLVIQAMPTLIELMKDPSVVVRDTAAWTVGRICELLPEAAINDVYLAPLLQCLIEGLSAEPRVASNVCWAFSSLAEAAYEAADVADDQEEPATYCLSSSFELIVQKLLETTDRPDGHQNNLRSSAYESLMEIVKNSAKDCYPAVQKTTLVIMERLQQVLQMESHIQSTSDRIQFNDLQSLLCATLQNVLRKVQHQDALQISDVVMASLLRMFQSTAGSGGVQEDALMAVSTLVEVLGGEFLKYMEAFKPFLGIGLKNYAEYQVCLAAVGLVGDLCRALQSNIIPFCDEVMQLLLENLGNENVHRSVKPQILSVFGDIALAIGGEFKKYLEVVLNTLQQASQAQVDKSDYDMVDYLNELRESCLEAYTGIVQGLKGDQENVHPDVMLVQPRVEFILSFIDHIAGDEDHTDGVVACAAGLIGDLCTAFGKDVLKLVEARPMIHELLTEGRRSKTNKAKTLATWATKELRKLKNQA
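FRET biosensor (snurportin 1 IBB flanked by EYFP and cerulean), 50 nM, with compound 5 min, then 0.125 microM importin beta in PBS, 1 mM DTT, 0.02% Tween-20, 0.1% BSA. CFP/YFP ratio read after 45 min at room temperature; pre-read flags interference.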
miR-21 reporter: qHTS Assay for Modulators of miRNAs and/orActivators of miR-21; HeLa miR-21 FLuc reporter, luciferase, 48 h; Potency, µM (doses to about 38.3 µM), inactives show at the highest dose reporter change, positive = more light; 340,000 tested, under 10 active; AID 2288, 2010; active = well fitted rising curve with a large enough effect; inconclusive = small, poorly fitted or top-dose-only effect; inactive = no such curve, though single readings can be large or run the other way;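 further: % of control where 0% means no effect; miR-21 action dims this reporter so a rising signal means less miR-21 action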
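Compounds were titrated across several concentrations (up to approximately 40 uM) and incubated 48 hours with HeLa miR-21-FLuc reporter cells (miR-21 target sequence downstream of FLuc, endogenous miR-21). Readout was firefly luciferase luminescence after lytic detection reagent.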
Rango dissoc inh: qHTS Assay for Inhibitors of RanGTP induced Rango (Ran-regulated importin-beta cargo) - Importin beta complex dissociation; Biochemical FRET Rango-importin beta, RanGTP-induced dissociation; hit rate 0.071% among 340,000; AID 540253, 2011; Snurportin-1 (Homo sapiens) + GTP-binding nuclear protein Ran (Homo sapiens) + Importin …; Potency, µM (highest dose often 46.1 µM), for the others: at the highest dose activity change, negative = inhibition; active means falling FRET ratio curve, often poorly fitted, with flat reads before Ran was added; inconclusive means other falling curves, or compound fluorescence or quenching; inactive means flat or rising ratio curve;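 further: potency means the concentration at half of the fitted maximal effect; % of control where 0% means no effect; nearly all actives have a fitted effect of over 45% in size; -100% = wells without RanGTP and RCC1; the record marks most hits as doubtful in a second field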
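FRET read at 45 min, room temperature: inhibitors block the CFP/YFP signal rise when RanGTP (0.6 uM Ran, 2 mM GTP, 0.2 uM RCC1) frees Rango (0.1 uM) from importin beta (0.25 uM). Pre-read after 5 min compound exposure flags interference.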
GLA inh pH 4.5: qHTS Assay for Inhibitors of Human alpha-Galactosidase at pH 4.5; Alpha-galactosidase A (Homo sapiens), P06280; purified enzyme, 4-MU-alpha-Gal fluorescence, pH 4.5; 230,000 tested, under 10 active; AID 1467, 2008; activity change, negative = inhibition, % at 105 µM; inconclusive = small, poorly fitted or top-dose-only inhibition, or a rising curve; inactive = flat fitted curve, though single readings scatter; no compound was filed as active;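 further: 0% = full activity with enzyme and -100% = basal without enzyme; dose as in the result columns while the protocol names 77 µM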
The depositor's hits bear a star; ? = inconclusive; / = not tested or not shown; & = joins results of further samples.

Order of results – miR-21 reporter	Rango complex inh	Rango dissoc inh	GLA inh pH 4.5
1: O=S(=O)(c1ccc(NC(=S)NN=C(C2CC2)C2CC2)cc1)N1CCOCC1
    -10%	0.7%	6%	-2
2: Cc1ccccc1CNC(=O)C(=O)NCC1OCCCN1S(=O)(=O)c1ccc(F)cc1C (centres undefined)
    5%	-0.4%	-11%	/
3: Cc1sc2ncnc(-n3cnc4ccccc43)c2c1C
    -4%	3.5%	1%	0
4: CCCOC(=O)c1ccc(Oc2c(-c3ccc(OC)cc3O)n[nH]c2C)cc1
    13%	0.8%	-8%	-12
5: CC1CCc2nn(CC(=O)NCCCN3CCOCC3)cc2C1 (centres undefined)
    0%	7.6%	2%	-8
6: COc1ccccc1C(CNC(=O)c1cccc(S(=O)(=O)NCc2ccccc2)c1)N(C)C (centres undefined)
    /	-0.3%	-5%	/
7: COc1cc2c(cc1OC)CN(C(=O)c1oc3ccccc3c1C)CC2
    10%	-3.5%	1%	/
8: CCCCCCOc1ccc(N2C(=O)CC(N(CCc3ccc(S(N)(=O)=O)cc3)C(C)=O)C2=O)cc1 (centres undefined)
    -1%	2.7%	-5%	10
9: Cc1ccc(S(=O)(=O)NNC(=O)c2ccc(NC(=O)C3CC3)cc2)cc1
    -3%	5.3%	-1%	/
10: COc1ccc(CCNc2ccc(N3C(=O)CC(C)C3=O)cc2[N+](=O)[O-])cc1 (centres undefined)
    -1%	-1.9%	2%	6
11: O=C(NCc1cccnc1)C1CC(c2ccccc2O)=NO1 (centres undefined)
    4%	0.0%	6%	/
12: CCc1ccc(NC(=S)N(CCCN2CCN(C)CC2)Cc2cccs2)cc1
    -12%	-3.5%	-6%	3
13: CCOC(=O)c1ccc2[nH]c3c(c2c1)CN(C)CC3
    5%	-2.7%	-10%	4
14: CCOCCOc1cccc(C(=O)NC(c2ccccc2)c2ccccc2)c1
    -2%	-0.8%	-1%	/
15: Nc1cc(Cl)nc(N/N=C/c2ccc([N+](=O)[O-])cc2)n1
    -12%	0.1%	-4%	-6

(more compounds)
Order of results – miR-21 reporter	Rango complex inh	Rango dissoc inh	GLA inh pH 4.5
16: O=C(CN1CCCC1)Nc1c2c(nc3ccccc13)N(Cc1ccccc1)CC2
    -9%	-7.3%	21%	15
17: NC(=O)NC(Cc1ccccc1)C(=O)NNC(=O)COc1ccccc1Cl (centres undefined)
    /	5.4%	-6%	/
18: CCCc1ccc2oc(C(=O)N(C)Cc3ccn[nH]3)c(C)c2c1
    -70%	1.0%	-13%	/
19: O=C(Nc1cc2c(=O)n(-c3ccc(Oc4ccccc4)cc3)ccc2oc1=O)c1ccccc1
    0%	?	2%	10
20: CC(C)(C)NC(=O)CON=C1c2ccccc2-c2ccccc21
    -8%	3.0%	7%	5
21: Cc1cc(NC(=O)c2ccc(N3C(=O)C4C5C=CC(C5)C4C3=O)cc2)no1 (centres undefined)
    -5%	-2.3%	-10%	5
22: Cc1cccc(CN2CCC(C(=O)Nc3cccc(-c4cscn4)c3)CC2)n1
    13%	1.1%	1%	/
23: COc1ccc(-c2nnc(SCC(=O)NNC(=O)c3ccc(C)cc3)o2)cc1
    -11%	4.6%	-1%	-13
24: O=C(Nc1cccc(S(=O)(=O)NC2=NCCCCC2)c1)c1cc(-c2ccccc2)nc2ccccc12
    1%	-4.1%	-4%	-5
25: COc1ccccc1N1CCN(C(=O)C(C)N(c2ccc(C)c(C)c2)S(C)(=O)=O)CC1 (centres undefined)
    20%	-4.0%	0%	1
26: O=C(O)CSC(=S)N1CCCC1
    4%	-2.3%	14%	-11
27: COc1ccc(C2Nc3ccccc3C(=O)N2O)cc1CN1CCOCC1 (centres undefined)
    0%	-0.5%	-13%	0
28: O=C(COC(=O)Cc1cccs1)Nc1cccc(S(=O)(=O)N2CCOCC2)c1
    /	-1.1%	24%	/
29: COc1ccc(-c2csc3nc(C)nc(N4CCN(C(C)=O)CC4)c23)cc1OC
    -3%	-0.9%	-12%	6
30: Cc1sc2nc(COC(=O)c3ccc(N4CCCC4)c([N+](=O)[O-])c3)[nH]c(=O)c2c1C
    -7%	1.8%	-1%	-1

Following part:
Order of results – miR-21 reporter	Rango complex inh	Rango dissoc inh	GLA inh pH 4.5
31: CCN(CC)C(=O)CSc1n[nH]c(=O)n1CCc1ccccc1
    2%	-2.6%	-15%	/
32: CCCCOc1ccc(C(=O)NCC(=O)NC(C)CCc2ccccc2)cc1 (centres undefined)
    -13%	0.1%	-7%	/
33: CC(C)CNC(=O)COCc1cc(-c2ccc3c(c2)OCO3)on1
    -40%	1.4%	2%	/
34: COc1ccc(OC)c(S(=O)(=O)N2c3cc(F)ccc3CCC2C)c1 (centres undefined)
    0%	?	10%	7
35: COC(=O)c1cc(S(=O)(=O)N2CCN(c3cccc(C)c3)C(C)C2)c[nH]1 (centres undefined)
    1%&-1%	-0.9%	-7%	/
36: Cc1ccc(C(C)C)c(Oc2nnnn2-c2ccccc2)c1
    18%	-0.4%	-9%	-8
37: Cc1c(Cl)cccc1NC(=O)CC(C(=O)O)C1CCCO1 (centres undefined)
    -1%	-2.4%	-10%	0
38: COC(=O)c1sc(S(=O)(=O)N2CC(C)OC(C)C2)c(C(=O)OC)c1C (centres undefined)
    /	0.2%	11%	/
39: CCOC(=O)c1c(NC(=O)CSc2nnc(-c3ccc(C)cc3)o2)sc(C(C)=O)c1C
    0%	-1.6%	17%	7
40: O=C(Nc1nnc(S(=O)(=O)N2CCCCCC2)s1)c1ccccc1F
    -30%&-48%	-0.5%	-12%	/
41: O=C(Nc1ccc(NC(=O)C2CC2)nc1)c1ccco1
    -41%	2.2%	-3%	-10
42: Cc1cc(C)n(C(=O)CNC(=O)c2cccs2)n1
    0%	-0.8%	2%	-22
43: O=C(COc1cc(Cl)c(Cl)cc1Cl)NC(=O)NC1CCCC1
    1%	0.6%	-5%	0
44: O=Nc1c(O)[nH]c2ccc(F)cc12
    1%	0.4%	22%	3
45: Cc1ccc(SCC(=O)OCC(=O)NCCC2=CCCCC2)cc1
    /	-1.0%	0%	/

Later entries.
Order of results – miR-21 reporter	Rango complex inh	Rango dissoc inh	GLA inh pH 4.5
46: COc1ccc(/C=N/N(C)c2cc(=O)n(C)c(=O)[nH]2)cc1OC
    -26%	-2.4%	-18%	8
47: CC(C)[C@@H](CSc1ccccc1)N1CCN(Cc2ccccc2)CCC1=O
    6%	3.8%	20%	/
48: O=C(NC1CCCCC1)c1ccc(S(=O)(=O)N2CCOCC2)cc1
    -9%	4.2%	7%	0
49: CC(C)CCNC(=O)CCNS(=O)(=O)c1ccc(Cl)cc1
    1%	4.8%	9%	-6
50: Cc1cccc(NC(=O)c2ccc3ccccc3n2)c1C
    -32%	2.4%	-10%	7
51: O=C(NCc1ccccn1)c1c(O)c2c([nH]c1=O)CCCC2
    2%	1.2%	8%	4
52: CC(=O)C1=C(C)NC(SCc2cccc3ccccc23)=C(C#N)C1c1ccco1 (centres undefined)
    -10%	0.4%	2%	-14
53: COc1cc(C(=O)NCCSc2ccccc2)cc(OC)c1OC
    -8%	4.0%	7%	/
54: Cc1cccc(-c2n[nH]c(=S)n2/N=C/c2ccc(C)o2)c1
    -3%	3.5%	-1%	2
55: CCOC(=O)c1cc(-c2ccccc2)n(Cc2cc(CC)no2)n1
    /	0.8%	-11%	/
56: NS(=O)(=O)c1cnccc1Nc1cccc(F)c1
    /	-0.2%	5%	/
57: CCC1CN(C(=O)N2CCC(C(=O)NCc3ccco3)CC2)c2ccccc2O1 (centres undefined)
    0%&-24%	-3.1%	-6%	/
58: COc1cccc(CNn2c(-c3cccc(C)c3)nc3ccccc3c2=O)c1
    22%	-5.6%	14%	-1
59: COc1cc(OC)c2c3c(c(C4CCCCC4)nc2c1)CCC3
    /	-0.4%	0%	/
60: CS(=O)(=O)N(CC(=O)N1CCOCC1)c1cccc([N+](=O)[O-])c1
    -2%	-5.5%	1%	0

Continued:
Order of results – miR-21 reporter	Rango complex inh	Rango dissoc inh	GLA inh pH 4.5
61: COc1ccc(N2CCN(S(=O)(=O)CCNC(=O)COc3cccc(OC)c3)CC2)cc1
    7%&4%	-1.2%	10%	/
62: CCCc1cc(C(N)=O)c(NC(=O)C2CCCO2)s1 (centres undefined)
    -10%	-3.2%	0%	-9
63: CC(C)Cn1c(=O)[nH]c2ccccc21
    -6%	0.8%	3%	-8
64: O=C(O)CCCCCN1C(=O)C(O)=C(C(=O)/C=C/c2ccccc2)C1c1cccc([N+](=O)[O-])c1 (centres undefined)
    0%	-2.9%	-18%	2
65: O=C(O)c1cccc(N=C2NC(=O)C(CO)(CO)S2)c1
    -3%	-0.3%	-12%	/
66: CS(=O)(=O)c1ccc(Cl)c(NC(=O)c2ccc3ccccc3c2)c1
    -24%	0.0%	0%	-10
67: Cc1ccc(C(=O)N/N=C\c2cc3c(cc2Br)OCO3)cn1
    -1%	-0.1%	7%	/
68: CC1(C(=O)NC2CCCC2)CCC(=O)N1Cc1ccccc1Cl (centres undefined)
    1%	4.9%	7%	6
69: CCOCCCN(C(=O)CCC(=O)Nc1cc(C)on1)C(C(=O)NC(C)(C)C)c1ccccc1Cl (centres undefined)
    0%	-2.8%	-11%	/
70: N#CC1=C(N)OC2=C(C(=O)CCC2)C12CCN(C(=O)OCc1ccccc1)CC2
    -6%	1.1%	-16%	5
71: CC(=O)N1CCN(C2=Nc3cccc4cccc2c34)CC1
    -22%	?	?	-3
72: Cc1cc(C)c(C)c(S(=O)(=O)Nc2cccnc2)c1C
    /	5.4%	0%	/
73: C=CCN1CCN(C(=O)c2ccc(-c3ccccc3)cc2)CC1
    -11%	-1.0%	-5%	/

An excerpt (hit frequency here may not be typical).
